From PubChem
Cruzain noTriton: blocks cruzain activity in detergent-free assay; P25779; purified cruzain, Z-FR-AMC fluorescence, no detergent; Potency, µM, for inactives: max response, negative = inhibition, actives largely listed as inhibitors; 200,000 tested, 2.3% active;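 further: plate controls were enzyme without inhibitor for no effect and buffer without enzyme for full effect; nearly all actives have a fitted effect of over 40% in size; top concentration of the series not given in the record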
Target sequence (P25779 123-467 limits assumed): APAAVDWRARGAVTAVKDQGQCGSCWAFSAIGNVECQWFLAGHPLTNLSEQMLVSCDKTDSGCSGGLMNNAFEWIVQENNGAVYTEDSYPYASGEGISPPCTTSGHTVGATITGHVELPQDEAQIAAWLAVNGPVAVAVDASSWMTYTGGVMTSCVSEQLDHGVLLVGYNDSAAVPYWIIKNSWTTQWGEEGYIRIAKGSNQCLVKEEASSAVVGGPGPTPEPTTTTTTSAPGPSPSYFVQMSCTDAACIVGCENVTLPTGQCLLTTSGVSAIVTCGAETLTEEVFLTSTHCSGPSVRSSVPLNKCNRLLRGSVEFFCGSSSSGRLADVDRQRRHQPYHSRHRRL
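Detergent-free condition (0.00005% Triton X-100) in acetate buffer pH 5.5 with DTT. 1.5 nM enzyme and compound were pre-mixed 15 min, then 2 uM Z-FR-AMC substrate added; reaction progress from fluorescence change between first and third reads (60 s).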
NS1 function inh: inhibitors of influenza NS1 protein function; Potency, µM (highest dose often 46.1 µM), without a hit: at the highest dose activity, positive = more growth; AID 2326; S. cerevisiae slowed by influenza A NS1, growth recovery by OD600; 270,000 tested, 0.4% active; active means well fitted rising curve with a large enough effect; inconclusive means small, poorly fitted or top-dose-only effect; inactive means no such curve, though single readings can be large or run the other way; further: nearly all actives have a fitted effect of over 50% in size
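S. cerevisiae expressing influenza A NS1, grown in glucose, washed, then diluted 1:100 into pH 6.0 -URA galactose medium with 23 nl compound. Growth recovery read as OD600; NS1-free strain serves as control.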
Cruzain Triton: blocks cruzain activity in presence of Triton detergent | P25779 | purified cruzain, Z-FR-AMC fluorescence, 0.01% Triton | Potency, µM, without a hit: max response, negative = inhibition, usual class: inhibitors | 200,000 tested, 0.43% active | AID 1478;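 further: plate controls were neutral wells for no effect and buffer without enzyme for full effect; nearly all actives have a fitted effect of over 40% in size; top concentration of the series not given in the record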
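Cysteine protease activity tested under reducing, mildly acidic conditions (100 mM sodium acetate pH 5.5, 5 mM DTT) plus 0.01% Triton X-100. Cruzain 1.5 nM; substrate Z-FR-AMC 2 uM; 15 min compound preincubation at room temperature.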
RE007 growth inh: less growth of the S. pombe RE007 Vpr strain; AID 651644; S. pombe RE007 Vpr strain, BacTiter-Glo ATP luminescence, 24 h; control for the full effect not named in the record; Potency, µM (series often up to 92.2 µM), for inactives: at the top dose activity change, negative = less growth; 360,000 tested, 0.21% active; active = well fitted falling curve with a large enough effect; inconclusive = small, poorly fitted or top-dose-only effect; inactive = no such curve, though single readings can be large or run the other way;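 further: on the % scale 0 is the no-effect control and ±100 the full control effect; nearly all actives have a fitted effect of over 50% in size; the assay follows cell death caused by Vpr and the record does not say whether a fall means rescue or toxicity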
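Fission yeast strain RE007, carrying one chromosomally integrated HIV-1 vpr copy, was seeded at OD 0.01 in PMG+AL medium with 23 nL pinned compound. After 24 h at 30 °C and 99% humidity, viability was read by BacTiter-Glo luminescence.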
SARS PLpro yeast: SARS-CoV PLP inhibition in yeast; S. cerevisiae expressing SARS-CoV PLpro, growth rescue; control for the full effect not named in the record; Potency, µM (series often up to 32.9 µM), for inactives: at the top dose activity, positive = growth rescue; 330,000 tested, 0.19% active; AID 485353; active means well fitted rising curve with a large enough effect; inconclusive means small, poorly fitted or top-dose-only effect; inactive means no such curve, though single readings can be large or run the other way; further: 0% is about no effect; nearly all actives have a fitted effect of over 55% in size; growth read by luminescence after 48 h
2A StopGo: FMDV 2A StopGo reporter, luciferase signal | Potency, µM (series often up to 57.9 µM), without a hit: top-dose signal change, negative = less light | human cells with a luciferase reporter of 2A StopGo recoding; control for the full effect not named in the record | AID 1159524 | 410,000 tested, 1.2% active; active = well fitted falling curve with a large enough effect; inconclusive = small, poorly fitted or top-dose-only effect; inactive = no such curve, though single readings can be large or run the other way; tested in HEK293T cells; further: on the % scale 0 is the no-effect control and ±100 the full control effect; nearly all actives have a fitted effect of over 45% in size; luciferase light after 4 h
MARV entry inh: blocks Marburg virus binding to or entry into cells. Potency, µM (titrated, usually from 37.8 µM), for the others: at the highest dose activity change, negative = inhibition, most hits filed as inhibitors. 300,000 tested, 1.8% active. AID 540276. Marburg virus pseudotyped entry inhibition, cell reporter; control for the full effect not named in the record; about a third of the inactives were read at about 46 µM; active = well fitted inhibition curve with a large enough effect; inconclusive = small, poorly fitted or top-dose-only effect, or effect the other way; inactive = flat fitted curve, though single readings scatter; tested in HEK293 cells; about a fifth of its hits are not listed in these tables; further: on the % scale 0 is the no-effect control and ±100 the full control effect; luciferase read-out
LASV entry inh: blocks Lassa virus binding to or entry into cells; Lassa virus pseudotype entry inhibition, cell reporter; control for the full effect not named in the record; Potency, µM (series often up to 37.9 µM), for the others: at the top dose activity change, negative = inhibition, most hits filed as inhibitors; 300,000 tested, 1.2% active; AID 540256; active means well fitted inhibition curve with a large enough effect; inconclusive means small, poorly fitted or top-dose-only effect, or effect the other way; inactive means flat fitted curve, though single readings scatter; tested in HEK293 cells; further: on the % scale 0 is the no-effect control and ±100 the full control effect; nearly all actives have a fitted effect of over 50% in size; luciferase read-out
Numbers without * were called inactive; & = joins results of further samples; ! = not confirmed by another sample; [ ] = remark or other dose. Unless noted, the call rests on the fitted dose curve; in most records, active means well fitted curve in the direction sought with a large enough effect; inconclusive means small, poorly fitted or top-dose-only effect, or another doubt; inactive means no such curve, though single readings can be large; an effect the other way counts as inactive or inconclusive. Potency means the concentration at half of the fitted maximal effect.

For CCOc1ccc(-n2c(=O)c3c4c(sc3n(Cc3cccc(Cl)c3)c2=O)CCCC4)cc1 the results were Cruzain noTriton -7%, Cruzain Triton 0.4%, 2A StopGo -9%, MARV entry inh 19%[46.1 µM] and LASV entry inh inconclusive.
Nc1cc(N2CCNCC2)ccc1[N+](=O)[O-] was read as Cruzain noTriton 0%, NS1 function inh 14%, Cruzain Triton -9.1%, RE007 growth inh 5%, SARS PLpro yeast 12%, 2A StopGo inconclusive, MARV entry inh 1% and LASV entry inh -3%.
Screening Cc1ccc(S(=O)(=O)N2CCOCC2)cc1NC(=O)COC(=O)CCC(=O)c1ccc(F)cc1 returned RE007 growth inh -21%, SARS PLpro yeast -1%, 2A StopGo -24%, MARV entry inh 4% and LASV entry inh 9%.
For O=C(NCc1cccs1)C1CCN(c2ccc(S(=O)(=O)N3CCOCC3)cc2Cl)CC1 the results were Cruzain noTriton 2%, NS1 function inh -6%, Cruzain Triton -3.0%, RE007 growth inh -4%, SARS PLpro yeast 11%, 2A StopGo -12%, MARV entry inh 1.1µM*! and LASV entry inh inconclusive.
For Cn1c(=O)c2c(nc(CN3CCc4ccccc4C3)n2Cc2ccc(Cl)cc2)n(C)c1=O the results were Cruzain noTriton 1%, NS1 function inh 6%, Cruzain Triton -2.5%, RE007 growth inh 1%, SARS PLpro yeast -7%, MARV entry inh 18% and LASV entry inh -23%.
COc1ccc(OC)c(C2C=C(c3ccc(C)c(C)c3)Nc3nnnn32)c1 (stereo unspecified) was read as Cruzain noTriton -11%, NS1 function inh -5%, Cruzain Triton -4.2%, RE007 growth inh 18%, SARS PLpro yeast -8%, 2A StopGo -26%, MARV entry inh inconclusive and LASV entry inh 5µM*.
For CCN1CCN(C(=O)c2ccc3c(=O)n(C4CCCC4)c(=S)[nH]c3c2)CC1 the results were Cruzain noTriton 4%, NS1 function inh -4%, Cruzain Triton 1.3%, RE007 growth inh -9%, SARS PLpro yeast 1%, 2A StopGo -29%, MARV entry inh 2% and LASV entry inh -1%.
For NC(=O)CC(NC(=O)Cc1cccc2ccccc12)c1ccc(NCc2ccccc2)c([N+](=O)[O-])c1 (stereo unspecified) the results were NS1 function inh 12%, RE007 growth inh -23%, SARS PLpro yeast 3% and 2A StopGo -6%.
Screening Cc1cccc(NC(=O)CN2C(=O)N/C(=C/c3cc(C)n(-c4cccnc4)c3C)C2=O)c1 returned RE007 growth inh -9%, SARS PLpro yeast 0%, 2A StopGo 1%, MARV entry inh -24%[46.1 µM] and LASV entry inh 0%.
Screening Cc1cc2c(s1)CCCCC(=O)N2 returned Cruzain noTriton -5%, NS1 function inh 12%, Cruzain Triton 9.4%, RE007 growth inh -7%, SARS PLpro yeast -11%, 2A StopGo -8%, MARV entry inh 13% and LASV entry inh 4%.
CN(Cc1ccc(OC(F)F)cc1)C(=O)c1ccc2c(=O)n3c(nc2c1)CCC3 was read as RE007 growth inh -2%, SARS PLpro yeast -4%, 2A StopGo -14%, MARV entry inh -17%[46.1 µM] and LASV entry inh -1%.
Screening COc1ccc(-n2nc3c(N4CCC(C(=O)NCCc5ccccc5)CC4)nnc(C)c3c2C)cc1 returned Cruzain noTriton -5%, Cruzain Triton -0.7%, 2A StopGo -23% and LASV entry inh -5%[46.1 µM].

Brought forward from above: two compounds, then new ones.
CN(Cc1ccc(OC(F)F)cc1)C(=O)c1ccc2c(=O)n3c(nc2c1)CCC3 was read as RE007 growth inh -2%, SARS PLpro yeast -4%, 2A StopGo -14%, MARV entry inh -17%[46.1 µM] and LASV entry inh -1%.
Screening COc1ccc(-n2nc3c(N4CCC(C(=O)NCCc5ccccc5)CC4)nnc(C)c3c2C)cc1 returned Cruzain noTriton -5%, Cruzain Triton -0.7%, 2A StopGo -23% and LASV entry inh -5%[46.1 µM].
Screening COc1ccc(NC(=O)c2cc(-c3cc(C)c(C)cc3O)n[nH]2)c(OC)c1 returned NS1 function inh 7%, RE007 growth inh 0%, SARS PLpro yeast 0%, 2A StopGo -10%, MARV entry inh 3% and LASV entry inh 12%.
COc1ccc(COC(=O)C2CCN(S(=O)(=O)c3ccc(F)cc3)CC2)cc1 was read as RE007 growth inh -19%, SARS PLpro yeast -1%, 2A StopGo -14%, MARV entry inh -2%[46.1 µM] and LASV entry inh -5%.
`Cc1ccc(NC(=O)c2cn(-c3ccccc3)nc2-c2ccccc2)cc1` gave Cruzain noTriton -2%, Cruzain Triton -3.3%, 2A StopGo 3%, MARV entry inh inconclusive and LASV entry inh inconclusive.
Screening NC(=O)C(c1ccccc1)c1ccc(C(=O)c2ccccc2)cc1 (stereo unspecified) returned NS1 function inh 0%, RE007 growth inh -2%, SARS PLpro yeast -2%, 2A StopGo inconclusive, MARV entry inh inconclusive and LASV entry inh inconclusive.
Screening COc1cccc(-n2nc(C(=O)N3CCC4(CC3)OCCO4)c3ccccc3c2=O)c1 returned Cruzain noTriton 2%, NS1 function inh 3%, Cruzain Triton 0.4%, RE007 growth inh 5%, SARS PLpro yeast -3%, 2A StopGo 1%, MARV entry inh -9% and LASV entry inh 2%.
`Cn1c(NNC(=O)c2cccc3ccccc23)cc(=O)n(C)c1=O` gave NS1 function inh 10%, RE007 growth inh 2%, SARS PLpro yeast 3% and 2A StopGo -11%.
For COC(=O)c1c(N2C(=O)CC(Sc3ccccc3C(=O)O)C2=O)sc(C)c1C (stereo unspecified) the results were NS1 function inh 5%, RE007 growth inh -13%, SARS PLpro yeast -6%, 2A StopGo -3%, MARV entry inh 1%[46.1 µM] and LASV entry inh -10%.
CCn1nc(NS(=O)(=O)c2ccccc2)c2cc3cc(C)ccc3nc21 was read as NS1 function inh -3%, RE007 growth inh 0%, SARS PLpro yeast 2% and 2A StopGo 28%.
For COCC(=O)N(Cc1cc2ccccc2[nH]c1=O)c1ccc(OC)cc1 the results were Cruzain noTriton -3%, NS1 function inh -6%, Cruzain Triton 0.7%, RE007 growth inh -3%, SARS PLpro yeast 5%, 2A StopGo -24%, MARV entry inh -6% and LASV entry inh 5%.
Screening COc1ccc(CNC(=O)C2CCCN(S(=O)(=O)c3c(C)noc3/C=C/N(C)C)C2)cc1 (stereo unspecified) returned NS1 function inh inconclusive, RE007 growth inh -6%, SARS PLpro yeast -5% and 2A StopGo 25%.
O=C(c1cccc(S(=O)(=O)N2CCc3ccccc3C2)c1)N1CCN(c2ccc(O)cc2)CC1 was read as Cruzain noTriton -26%, NS1 function inh inconclusive, Cruzain Triton -4.9%, RE007 growth inh -13%, SARS PLpro yeast inconclusive, 2A StopGo -40%, MARV entry inh -12% and LASV entry inh inconclusive.
O=C(NCc1ccccn1)c1ccc(=O)oc1 was read as Cruzain noTriton -17%, NS1 function inh 5%, Cruzain Triton -7.1%, RE007 growth inh 14%, SARS PLpro yeast -1%, 2A StopGo 13%, MARV entry inh 8% and LASV entry inh 13%.
For CCc1ccc2oc(-c3ccc(NC(=O)c4ccc(OC)c(Br)c4)cc3)nc2c1 the results were Cruzain noTriton -8%, Cruzain Triton -0.1%, 2A StopGo 37%[activator] and LASV entry inh 9%[46.1 µM].
CCN(CC)CCN1C(=O)C(=O)/C(=C(/O)c2c(C)[nH]c(C(=O)OC)c2C)C1c1cccnc1 (stereo unspecified) was read as Cruzain noTriton -7%, NS1 function inh -3%, Cruzain Triton -6.1%, RE007 growth inh -5%, SARS PLpro yeast -3%, 2A StopGo 9%, MARV entry inh -9%&-9% and LASV entry inh inconclusive.
`FC(F)(F)c1cccc(NC(=S)Nc2ccc(Cl)c(Cl)c2)c1` gave NS1 function inh -57%, RE007 growth inh 6%, SARS PLpro yeast -6%, 2A StopGo -20%, MARV entry inh inconclusive and LASV entry inh inconclusive.
For COc1ccc(C)cc1NC(=O)c1ccc(=O)n(Cc2ccccc2)c1 the results were Cruzain noTriton -5%, Cruzain Triton -3.1%, 2A StopGo -20% and LASV entry inh -19%[46.1 µM].
`COc1ccc(-c2noc(CNS(=O)(=O)c3ccccc3)n2)cc1` gave NS1 function inh -3%, RE007 growth inh 6%, SARS PLpro yeast -3% and 2A StopGo 19%.
For Cc1ccc2ccc(S(=O)(=O)NCc3ccco3)cc2c1 the results were NS1 function inh -6%, RE007 growth inh -2%, SARS PLpro yeast -4%, 2A StopGo 79%[activator], MARV entry inh inconclusive and LASV entry inh -3%.
COc1cccc(CN2CC(C(=O)NCCCn3ccnc3C)CCC2=O)c1 (stereo unspecified) was read as NS1 function inh 3%, RE007 growth inh 16%, SARS PLpro yeast 23%, 2A StopGo -4%, MARV entry inh 15%[46.1 µM] and LASV entry inh 18%[46.1 µM].
CN(C)S(=O)(=O)c1ccc(N2CCCC2)c(C(=O)NNC(=O)COc2ccccc2Cl)c1 was read as RE007 growth inh 3%, SARS PLpro yeast -1%, 2A StopGo -2%, MARV entry inh -22% and LASV entry inh 0%.
CSCCC(NC(=O)c1ccccc1)C(=O)Nc1ccc(NC(C)=O)cc1 (stereo unspecified) was read as Cruzain noTriton -15%, NS1 function inh -3%, Cruzain Triton 1.9%, SARS PLpro yeast 11%, MARV entry inh 3% and LASV entry inh 1%.
For Fc1ccc(-c2nnc3ccc(N4CCCC4)nn23)cc1 the results were Cruzain noTriton inconclusive, NS1 function inh -37%, Cruzain Triton -3.8%, RE007 growth inh -6%, SARS PLpro yeast -1%, 2A StopGo -7%, MARV entry inh 3% and LASV entry inh -11%.
For COc1ccc(Cl)cc1C(=O)Nc1ccc(NC(=O)c2ccco2)cc1 the results were Cruzain noTriton -6%, NS1 function inh 7%, Cruzain Triton 10%, RE007 growth inh 11%, SARS PLpro yeast -10%, 2A StopGo -2%, MARV entry inh 0% and LASV entry inh 3%.
CCc1ccc(NC(=O)Cn2nnc(C(=O)NCc3ccc4c(c3)OCO4)c2N)cc1 was read as NS1 function inh 1%, RE007 growth inh 6%, SARS PLpro yeast 9% and 2A StopGo 18%.
For O=C(c1ccccc1Cl)N(Cc1ccc(Br)cc1)N1C(=O)CCC1=O the results were NS1 function inh -3%, RE007 growth inh -3%, SARS PLpro yeast -1% and 2A StopGo -10%.
